Six1-Eya2 inh – Six1/Eya2 interaction inhibition | Q15475+O00167 | AlphaScreen GST-Six1/His-Eya2 binding, biochemical; active compounds read low; control for the full effect not named in the record | activity change, % (no concentration beside the values) | actives 0.56% (n = 360,000); in the data active = activity change below about -65%; inconclusive = about -30% to -65%; inactive = above about -30%; also: % is scaled to controls: 0 for no effect and ±100 for the full control effect
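Six1/Eya2 binding was read as AlphaScreen signal after compounds were pinned into GST-Six1 plus His-tagged Eya2 (5X stock 250/500 nM) in pH 8.0 Tris/NaCl/TCEP buffer, beads added, then incubated 1 h, 37 C, dark.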
D2 ag – activates the human D2 dopamine receptor | DiscoveRx PathHunter D2 beta-arrestin, luminescence, 90 min; 100% = 57 uM dopamine signal | P14416 | AID 624465 | activation, % (test concentration not listed) | actives 0.084% (n = 360,000); in the data active = activation above about 40%; inconclusive = about 15% to 40%; inactive = below about 15%; also: compound concentration not given in the record; the text of the record calls up to 30% inactive
Target sequence (P14416 whole entry, looked up): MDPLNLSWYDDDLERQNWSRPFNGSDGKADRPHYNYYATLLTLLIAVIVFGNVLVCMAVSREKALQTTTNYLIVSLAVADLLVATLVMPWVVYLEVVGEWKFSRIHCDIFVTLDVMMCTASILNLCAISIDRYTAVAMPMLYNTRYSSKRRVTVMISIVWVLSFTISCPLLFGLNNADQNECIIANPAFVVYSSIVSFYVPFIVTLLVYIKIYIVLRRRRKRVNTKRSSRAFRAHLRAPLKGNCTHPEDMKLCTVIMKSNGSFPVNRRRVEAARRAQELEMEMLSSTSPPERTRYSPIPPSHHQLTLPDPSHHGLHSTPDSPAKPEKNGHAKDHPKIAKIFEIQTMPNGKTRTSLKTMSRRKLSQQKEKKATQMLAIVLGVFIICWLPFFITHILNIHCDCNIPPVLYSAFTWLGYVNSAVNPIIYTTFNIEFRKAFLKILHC
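Agonist mode: compounds alone added to overnight-plated D2 PathHunter cells for 90 min at 37 C, with 57 uM final dopamine (EC100) defining full response. Beta-arrestin recruitment detected by chemiluminescent reagent, read after 1 h at ambient temperature.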
TRPML1 agonist – activates the human TRPML1 channel | activation, % (no concentration beside the values) | actives 0.12% (n = 410,000) | TRPML1-expressing cells, Ca2+ dye fluorescence, FDSS; host cell line not named in the record; reference of the full effect not given here | Q9GZU1; in the data active = activation above about 50%; inconclusive = about 30% to 50%; inactive = below about 30%; also: 0% is about no effect; the text of the record puts the active cut at 80%
Target sequence (Q9GZU1 whole entry, looked up): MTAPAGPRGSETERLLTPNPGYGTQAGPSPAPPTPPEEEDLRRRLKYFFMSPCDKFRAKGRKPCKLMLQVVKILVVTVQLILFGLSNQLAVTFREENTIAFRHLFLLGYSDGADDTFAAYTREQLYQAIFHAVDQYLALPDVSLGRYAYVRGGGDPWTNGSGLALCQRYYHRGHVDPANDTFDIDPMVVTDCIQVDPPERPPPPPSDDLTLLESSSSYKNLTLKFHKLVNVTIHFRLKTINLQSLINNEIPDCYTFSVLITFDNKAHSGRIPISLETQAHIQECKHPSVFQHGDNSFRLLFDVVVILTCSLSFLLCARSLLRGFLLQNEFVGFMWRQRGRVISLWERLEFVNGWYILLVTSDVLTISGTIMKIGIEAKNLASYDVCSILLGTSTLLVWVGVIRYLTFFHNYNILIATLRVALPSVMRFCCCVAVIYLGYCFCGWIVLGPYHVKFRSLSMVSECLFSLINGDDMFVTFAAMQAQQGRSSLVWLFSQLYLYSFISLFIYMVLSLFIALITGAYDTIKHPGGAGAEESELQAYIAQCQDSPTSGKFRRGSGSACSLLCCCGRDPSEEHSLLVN
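In this qHTS format, compounds were pin-transferred onto Ca8-dye-loaded TRPML1-DL cells induced with Tet overnight, and intracellular Ca2+ fluorescence was recorded kinetically for 110 s after a 10 s baseline. A subsequent 4uM final 54-4 (EC80) addition followed by a second 110 s read served as the antagonist phase.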
D2 potentiator – positive allosteric modulators of human D2 dopamine receptor; potentiation, % (test concentration not listed); actives 0.23% (n = 360,000); P14416; DiscoveRx D2 beta-arrestin cells, luminescence, 90 min; 100% = 57 uM dopamine signal; active = potentiation of 50% or more; inconclusive = 30% to 50%; inactive = 30% or less;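 also: compound concentration not given in the record; tested on top of an EC20 dose of dopamine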
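D2 cells co-treated with compound plus 50 nM dopamine (EC20) for 90 min at 37 deg C to detect potentiation. Beta-arrestin recruitment was read as enzyme-fragment luminescence after 1 h at ambient temperature. Full response was set by 57 uM dopamine.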
PINK1 modulator – changes PINK1 expression. PINK1 immunofluorescence, high-content cytometry, 24 h. Potency, µM (series often up to 76.6 µM), inactives show top-dose activation (PINK1 increase), most hits filed as activators. actives 0.2% (n = 410,000); active = well fitted activation curve with a large enough effect; inconclusive = small, poorly fitted or top-dose-only effect; inactive = flat fitted curve, though single readings scatter; cell line not stated here;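 also: potency is read from the fitted curve at half-maximal effect; % of control where 0% means no effect; nearly all actives have a fitted effect of over 65% in size; a mitochondrial uncoupler was the plate control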
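Measures PINK1 amount and localization on or inside mitochondria by immunofluorescence. Stable cells get compounds at 5 concentrations for 24 hours before fixation and staining; CCCP controls included.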
TRPML1 inh – inhibitors of human TRPML1 channel; Q9GZU1; TRPML1-inducible cells, Ca2+ dye fluorescence, FDSS; active compounds read low; inhibition of EC80 agonist-evoked calcium signal; activity change, negative = inhibition, % (no concentration beside the values); actives 0.02% (n = 390,000); AID 624415; in the data active means activity change below about -50%; inconclusive means about -30% to -50%; inactive means above about -30%;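 also: stimulus is agonist 54-4 at its EC80 concentration; % is scaled to controls: 0 for no effect and ±100 for the full control effect; compound concentration not given in the record; the text of the record puts the active cut at -80%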
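Tet-induced TRPML1-DL cells loaded with Ca8 no-wash calcium dye were read kinetically on FDSS. Compound addition was followed by EC80 agonist 54-4 (4 uM final); inhibition was read over 110 s.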
An asterisk follows results filed as active; ? = inconclusive; · = not tested or not shown; & = joins results of further samples; [ ] = dose if it differs, or a comment. Rows are unselected; 1% or so of the library scored in one or more.

entry	SMILES	Six1-Eya2 inh	D2 ag	TRPML1 agonist
1	Cn1c(SCC(=O)NCCc2ccc(S(N)(=O)=O)cc2)nc2ccccc2c1=O	-11	-1.3	1.0
2	CC(NC(=O)c1cccc2ccccc12)c1ccc2c(c1)CCCC2 (stereo unspecified)	-3	-0.1	2.5
3	CNC(=O)/C(C#N)=C/c1ccc(OCCOc2ccccc2)cc1	1	5.5	·
4	CCOC(=O)C1=C(C)N=c2s/c(=C/c3ccc(OCC(=O)O)cc3)c(=O)n2C1c1cc(OC)c(OC)c(OC)c1 (stereo unspecified)	?	1.8	1.0
5	COc1ccc(NC(=O)CSc2ccc(-c3ccco3)nn2)cc1OC	-13	-2.4	-0.8
6	CC(c1ccccc1F)n1cc(C(=O)NCc2ccncc2)nn1 (stereo unspecified)	5	-1.4	3.1
7	Cn1c(=O)[nH]c(=O)c2c1nc(Br)n2CCC(=O)c1ccccc1	11	-0.5	0.8
8	COc1cccc(-n2nnc3c(=O)n(Cc4c(F)cccc4Cl)cnc32)c1	1	-0.7	1.0
9	O=C(CSc1ccc(-c2cccs2)nn1)Nc1ccccc1C(F)(F)F	·	·	2.5
10	O=[N+]([O-])c1ccc(Cl)c(S(=O)(=O)Nc2ccc(S(=O)(=O)N3CCOCC3)cc2)c1	-22	-1.8	-0.8
11	O=C(Nc1cc(Cl)ccc1Cl)C1CC(=O)N(c2ccc(Br)cc2)C1 (stereo unspecified)	5	0.9	3.1
12	O=C(COc1ccc(Br)cc1)Nc1ccc(-c2nnc(-c3ccco3)o2)cc1	6	8.3	-0.1
13	COc1ccc(Cl)cc1NC(=O)Cn1c(=O)n(CCC(=O)NCc2ccc3c(c2)OCO3)c(=O)c2ccccc21	·	·	-0.4
14	COc1ccc(C2OC(=O)CC2C(=O)NCc2ccc(F)cc2)cc1OC (stereo unspecified)	-7	3.5	0.5
15	CN1c2ccccc2C(=O)NC1c1ccc(Cl)cc1 (stereo unspecified)	10	-1.0	0.3

entry	D2 potentiator	PINK1 modulator	TRPML1 inh
1	-5	0.5%	-5
2	-6	11%	-18
3	28	5.8%	·
4	-8	2.9%	-1
5	-13	-1.2%	0
6	-1	-1.8%	-6
7	-4	0.0%	26
8	-19	-0.7%[38.3 µM]	6
9	·	-1.1%	-13
10	15	4.1%	1
11	-3	7.9%	-9
12	8	11%	-7
13	·	2.6%	-1
14	-32	1.4%	-8
15	-10	-1.1%	-9

An excerpt from above in order of heavy-atom count, descending:
entry	SMILES	Six1-Eya2 inh	D2 ag	TRPML1 agonist
13	COc1ccc(Cl)cc1NC(=O)Cn1c(=O)n(CCC(=O)NCc2ccc3c(c2)OCO3)c(=O)c2ccccc21	·	·	-0.4
14	COc1ccc(C2OC(=O)CC2C(=O)NCc2ccc(F)cc2)cc1OC (stereo unspecified)	-7	3.5	0.5
3	CNC(=O)/C(C#N)=C/c1ccc(OCCOc2ccccc2)cc1	1	5.5	·

entry	D2 potentiator	PINK1 modulator	TRPML1 inh
13	·	2.6%	-1
14	-32	1.4%	-8
3	28	5.8%	·

Additional results
entry	SMILES	Six1-Eya2 inh	D2 ag	TRPML1 agonist
16	COc1ccc(OC)c(/C=N/NC(=O)Cn2ccnc2C)c1	-1	-1.6	0.8
17	O=S(=O)(c1ccccc1)c1nc(-c2ccccc2)oc1N1CCN(c2cccc(Cl)c2)CC1	·	·	0.0
18	CNS(=O)(=O)c1ccc(C)c(S(=O)(=O)NC)c1	14	-2.3	0.0
19	CCOc1ccc(S(=O)(=O)NCc2cccs2)cc1C(C)C	3	-0.5	1.3
20	Cc1cc(NC(=O)c2ccc(-c3ccccc3F)o2)no1	-12	4.9	-0.1
21	Cc1ccc(-c2csc3ncnc(N4CCN(S(=O)(=O)c5ccc(C#N)cc5)CC4)c23)cc1	-2	-1.4	-1.0
22	Cc1cccc(NC(=O)CSc2nc(C3CCCC3)nc3c2c(=O)n(C)c(=O)n3C)c1C	·	·	1.9
23	CN(Cc1ccsc1)C(=O)CCc1nnc(CCCc2ccccc2)o1	3	-2.3	-0.5
24	CNC(=O)/C(C#N)=C/c1ccc(-c2ccc(OC)cc2[N+](=O)[O-])o1	-9	-4.5	-0.2
25	O=c1cc(-c2ccccc2)[nH]c2nc3ccccc3n12	1	0.9	-0.3
26	S=C(NC1CCCCC1)N1CCOCCOCCN(C(=S)NC2CCCCC2)CCOCC1	-2	-0.6	0.2
27	CCCSC1=C(C#N)C(c2ccccc2OCC)CC(=O)N1 (stereo unspecified)	7	-2.0	1.7
28	Cc1ccn2cc(CSc3ccccc3)nc2c1	6	0.1	-0.4
29	O=C(O)/C(=C\c1ccc(Cl)cc1)c1ccc(S(=O)(=O)N2CCCC2)s1	-1	0.7	0.0
30	CC(C)(C)c1ccc(C(=O)NNC(=O)CNC(=O)c2cccs2)cc1	7	-1.3	0.4

entry	D2 potentiator	PINK1 modulator	TRPML1 inh
16	-9	2.7%	19
17	·	0.0%	0
18	-12	-2.2%	-5
19	-1	4.2%	33
20	-35	0.3%	5
21	4	1.0%	-8
22	·	1.2%	-12
23	-12	-1.0%	17
24	5	0.6%	-10
25	3	11%	4
26	-2	0.3%	20
27	-9	0.4%	21
28	-40	0.9%	-1
29	5	-1.7%	1
30	0	1.3%	1

Later entries.
entry	SMILES	Six1-Eya2 inh	D2 ag	TRPML1 agonist
31	CC(C)Cn1c(SCC(=O)Nc2ccc(Cl)cc2F)nc(O)cc1=O	0	0.3	-0.1
32	Cc1cc(C)c2nc(SCC(=O)NC(=O)c3cccn3C)cc(C)c2c1	-14	0.7	0.5
33	O=C(CN1CCC(C(O)(c2ccccc2)c2ccccc2)CC1)Nc1ccccc1	-1	-1.0	0.5
34	Cc1ccc(-n2c(-c3ccccc3)c[n+]3c2CCC3)cc1	1	1.8	0.1
35	CCCCNC(=O)C1C2C=CC3(CN(Cc4ccc(C)cc4)C(=O)C13)O2 (stereo unspecified)	6	2.6	0.1
36	Cc1cc(C)n(C(=O)c2cccc(S(=O)(=O)N3CCOCC3)c2)n1	2	-4.0	-0.2
37	C#CCn1cc(Cl)cc(C(=O)Nc2ccccc2)c1=O	6	-0.5	0.0
38	CCOC(=O)c1ccccc1NC(=O)COC(=O)CCNS(=O)(=O)c1ccc(C)c(C)c1	4	0.3	3.1
39	Cc1noc(/C=C/N(C)C)c1S(=O)(=O)N1CCCC(C(=O)NCCC2=CCCCC2)C1 (stereo unspecified)	-7	-3.0	-0.2
40	Cc1ccc(S(=O)(=O)N(C)Cc2ccc(C(=O)N/N=C/c3ccc(OC(F)F)cc3OC(F)F)cc2)cc1	3	1.2	0.5
41	Cc1ccc2nc(C)cc(N/N=C/c3ccccc3O)c2c1	-16	?	·
42	COc1ccccc1NS(=O)(=O)c1cc(NC(=O)COc2ccccc2F)ccc1N1CCOCC1	10	-5.2	0.6
43	COCCN1CN=C(Nc2nc3ccccc3o2)NC1	-1	-0.3	0.4
44	Cc1ccc(C(c2ccc(C)o2)c2cccc([N+](=O)[O-])c2O)o1	?	0.9	1.5
45	COc1cc(/C=N/NC(=O)CCc2ccccc2)ccc1O	-12	-2.0	0.0

entry	D2 potentiator	PINK1 modulator	TRPML1 inh
31	-6	-0.9%	-13
32	2	21%	16
33	-22	-1.5%[38.3 µM]	-10
34	-21	0.1%	-10
35	-8	-1.1%	-3
36	-20	-1.2%	-8
37	-18	2.3%	-3
38	-20	0.2%	0
39	1	3.5%	3
40	-4	1.3%	3
41	-30	3.3%	·
42	-15	-1.9%	-8
43	-6	1.6%	8
44	0	-1.9%	-17
45	-6	0.3%	-28

Entries of single compounds as entered above. Screens in order: Six1-Eya2 inh, D2 ag, TRPML1 agonist, D2 potentiator, PINK1 modulator, TRPML1 inh
Record of Cc1ccc(C(c2ccc(C)o2)c2cccc([N+](=O)[O-])c2O)o1 → ?, 0.9, 1.5, 0, -1.9%, -17
Record of COc1ccccc1NS(=O)(=O)c1cc(NC(=O)COc2ccccc2F)ccc1N1CCOCC1 → 10, -5.2, 0.6, -15, -1.9%, -8
Record of COCCN1CN=C(Nc2nc3ccccc3o2)NC1 → -1, -0.3, 0.4, -6, 1.6%, 8
Record of Cc1ccc2nc(C)cc(N/N=C/c3ccccc3O)c2c1 → -16, ?, ·, -30, 3.3%, ·
Record of Cc1ccc(S(=O)(=O)N(C)Cc2ccc(C(=O)N/N=C/c3ccc(OC(F)F)cc3OC(F)F)cc2)cc1 → 3, 1.2, 0.5, -4, 1.3%, 3

Some of these compounds in order of their number in Six1-Eya2 inh, smallest number first.
No.	canonical_smiles	Six1-Eya2 inh	D2 ag	D2 potentiator	PINK1 modulator	TRPML1 inh
34	Cc1ccc(-n2c(-c3ccccc3)c[n+]3c2CCC3)cc1	1	1.8	-21	0.1%	-10
38	CCOC(=O)c1ccccc1NC(=O)COC(=O)CCNS(=O)(=O)c1ccc(C)c(C)c1	4	0.3	-20	0.2%	0
35	CCCCNC(=O)C1C2C=CC3(CN(Cc4ccc(C)cc4)C(=O)C13)O2 (stereo unspecified)	6	2.6	-8	-1.1%	-3

Additional structures follow:
entry	SMILES	Six1-Eya2 inh	D2 ag	TRPML1 agonist
46	COc1ccc(-c2ccccc2NC(=O)C2CCCN(Cc3ccc(C)o3)C2)cc1 (stereo unspecified)	-5	-4.9	1.4
47	Cc1ccc(S(=O)(=O)NCc2nc3ccccc3c(=O)n2N)cc1	2	3.2	-0.2
48	CC(C)[C@H](N)C(=O)NC[C@H]1O[C@@H](n2cnc3c(N)ncnc32)[C@H](O)[C@@H]1O	3	-0.4	-0.4
49	COc1ccccc1NC(=O)Cn1c(=O)n(Cc2nc(C)no2)c(=O)c2cc3c(cc21)OCO3	·	·	1.5
50	CCC(C)(O)C(=O)N[C@H]1CCCN1C(=O)/C=C/c1ccccc1 (stereo partly specified)	5	-1.0	-0.8
51	CCN(CC)c1nc2ccccc2n2cnnc12	-29	-2.8	0.0
52	Cc1ccc(NC(=O)CCc2c(C)nn(-c3ccc(N4CCOCC4)nn3)c2C)cc1F	2	-0.1	-1.0&0.1
53	COCCNc1nc2ccccc2n1CC(=O)c1ccc(OC)c(OC)c1	10	-0.5	0.2
54	COc1ccc(C)cc1NS(=O)(=O)c1ccc2c(c1)CCCN2C(C)=O	·	·	0.1
55	Clc1ccc2c(c1)-c1c(cnc3cc(-c4ccccc4)nn13)CO2	·	·	0.4

entry	D2 potentiator	PINK1 modulator	TRPML1 inh
46	-17	-0.6%	4
47	0	1.6%[38.3 µM]	3
48	-1	0.1%	-9
49	·	0.2%	19
50	-5	-0.8%	3
51	-6	-1.1%	0
52	-5	7.0%&4.4%	5&-12
53	-4	0.8%	18
54	·	-0.7%	-19
55	·	0.7%	-20
